HSV replic up = enhancers of HSV replication in host cells, fold increase, host cell viability. HSV replication augmentation in cells. maximum fold increase. 0.005% of 220,000 active;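 active = peak rise of 1.5-fold or more in the series; inconclusive = self-fluorescent or not available for retest; tested in PC3 cells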;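 note: first round at 10 µM; read as green reporter fluorescence; hits show the peak of a series up to 25 µM; 1 = signal of infected wells without compound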
GALR2 ag = GALR2 receptor agonists, primary screen, cell-based; Galanin receptor type 2 (Homo sapiens), O43603; GALR2-expressing cells, agonist activation read-out; activation, %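 (tested at 5 µM)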; 0.48% of 140,000 active;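 active = above mean plus 3 SD of all compounds, about 5% in these data, not always enough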;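 note: 0% = vehicle buffer wells and 100% = reference agonist at full effect; tested in CHO reporter cells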
Target sequence (O43603 whole entry, looked up): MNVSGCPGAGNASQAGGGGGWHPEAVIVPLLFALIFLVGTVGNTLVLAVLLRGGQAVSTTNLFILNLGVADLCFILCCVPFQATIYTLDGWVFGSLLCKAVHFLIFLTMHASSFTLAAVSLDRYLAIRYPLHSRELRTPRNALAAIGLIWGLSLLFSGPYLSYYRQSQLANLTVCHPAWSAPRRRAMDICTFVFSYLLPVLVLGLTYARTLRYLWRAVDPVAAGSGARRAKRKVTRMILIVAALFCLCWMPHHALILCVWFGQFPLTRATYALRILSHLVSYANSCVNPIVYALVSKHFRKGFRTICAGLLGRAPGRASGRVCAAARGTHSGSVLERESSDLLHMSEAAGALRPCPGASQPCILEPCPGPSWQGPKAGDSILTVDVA
RGS16-Gao = modulators of RGS16 binding to Galphao, primary screen, biochemical, human proteins, multiplexed bead flow cytometry; Regulator of G-protein signaling 16 (Homo sapiens) + Guanine nucleotide-binding protein …; bead-based flow cytometry RGS16-Galphao binding, fluorescence; actives lie on both sides; binding response (% of control), % at 10 µM; 0.38% of 220,000 active; AID 1441, 2008;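 active = below 25% or above 175%, edge rows of some plates excepted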;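 note: Galphao activated by GDP with aluminum fluoride before binding; 100% = wells without compound and 0% = beads without RGS; some results beyond the cut were filed as inactive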
Target sequence (O15492 whole entry, looked up): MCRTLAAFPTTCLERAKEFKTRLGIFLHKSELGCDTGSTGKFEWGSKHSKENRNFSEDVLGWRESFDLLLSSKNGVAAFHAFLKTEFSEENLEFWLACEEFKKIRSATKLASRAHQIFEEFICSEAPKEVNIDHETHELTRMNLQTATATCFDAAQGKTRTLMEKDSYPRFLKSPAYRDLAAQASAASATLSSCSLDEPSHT
Target sequence (P09471 whole entry, looked up): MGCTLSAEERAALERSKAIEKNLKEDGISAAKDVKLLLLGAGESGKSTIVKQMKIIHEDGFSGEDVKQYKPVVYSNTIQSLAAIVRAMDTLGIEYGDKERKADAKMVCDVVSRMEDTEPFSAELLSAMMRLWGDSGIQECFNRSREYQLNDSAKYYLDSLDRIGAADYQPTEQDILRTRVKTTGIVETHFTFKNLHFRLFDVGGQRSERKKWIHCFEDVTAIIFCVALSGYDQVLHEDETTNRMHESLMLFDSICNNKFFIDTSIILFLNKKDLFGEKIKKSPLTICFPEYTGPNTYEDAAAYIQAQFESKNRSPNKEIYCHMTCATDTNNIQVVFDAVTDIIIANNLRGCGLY
INS promoter inh = inhibitors of insulin promoter-driven GFP, primary screen, imaging, TRM-6 cells (human fetal islet line), eGFP reporter, cell count; reporter expression induced with tamoxifen; inhibition, % at 2 µM; 0.9% of 130,000 active;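 active = inhibition above the mean plus 3 SD, with well images judged a real hit on visual review, cut at about 60% in these data, passing the limit was not always enough; inconclusive = inhibition over the cutoff but images rejected on review; inactive = inhibition not above the cutoff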
PKD1 inh = inhibitors of human PKD1 kinase, biochemical, fluorescence polarization. PKD1 kinase fluorescence polarization assay. Serine/threonine-protein kinase D1 (Homo sapiens), Q15139. inhibition, %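 (about 10 µM by stock and volumes)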. AID 797, 2007. 0.056% of 200,000 active;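 active = inhibition of 50% or more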;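 note: controls were vehicle for no effect and a reference inhibitor for full effect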
INS promoter inh cell count = also measured in INS promoter inh; calls as there; normalized cell count, %; measured here: cell count, toxicity; reference of the scale not given here;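 cells exposed to compound for 48 h; stained nuclei by imaging scaled within each plate; lower means fewer cells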
HSV replic up primary fold = further read-out of HSV replic up, marked with its call; fold increase; compound at 10 µM; measured here: primary screen fold increase 10 uM; tested in PC3 cells;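 GFP signal in the first replicate; 1 = infected wells without compound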
Numbers without * were called inactive; i = inactive; ? = inconclusive; nt = no result given.

mol | HSV replic up | HSV replic up primary fold | GALR2 ag | RGS16-Gao | INS promoter inh | INS promoter inh cell count | PKD1 inh
Cc1cc(C)c(NC(=O)CS(=O)CC(=O)N2CCN(c3ccc(F)cc3)CC2)c(C)c1 (stereo not given) | i | 0.97 | -2.6 | -781 | -40 | 30 | -23
COc1ccccc1NC(=O)Nc1ncccc1C | nt | nt | -3.0 | 105 | nt | nt | -6
COc1ccccc1N(C(=O)CNC(=O)c1ccco1)C(C(=O)NC1CCCC1)c1ccncc1 (stereo not given) | i | 0.72 | 0.1 | 46 | -7 | 144 | -3
Cc1cc(C)n(-c2ncnc3sc(C)c(C)c23)n1 | i | 0.92 | -1.2 | 114 | -300 | 85 | -2
COc1ccc(NC(=O)Cn2nc(C)c([N+](=O)[O-])c2C)cn1 | i | 0.98 | nt | 103 | 8 | 154 | -5
CCCCOc1ccccc1Cn1c(=O)oc2ccccc21 | i | 0.88 | -1.2 | 105 | nt | nt | -13
CCOc1cc2c(cc1OCC)C(C(=O)O)C(c1cc(OC)c(OC)c(OC)c1)N(C)C2=O (stereo not given) | i | 0.94 | -0.5 | 96 | nt | nt | -4
O=S(=O)(Cc1ccccc1)c1ccccc1-c1nnc(-c2ccccc2)o1 | i | 1 | -2.9 | 119 | 6 | 126 | -1
CCN(CC)c1ncnc2scc(C3COc4ccccc4O3)c12 (stereo not given) | i | 0.79 | -1.6 | 98 | 8 | 175 | -4
CCCCN(C(=O)NC(=O)Nc1ccccc1C)S(C)(=O)=O | i | 1 | -2.2 | 105 | -3 | 106 | -2
CN(C)c1ccc(/C=C/c2cc[n+]([O-])cc2)cc1 | i | 1.3 | -0.6 | 96 | nt | nt | -2
COc1cc(/C=N/NC(=O)c2c(-c3ccccc3)noc2C)cc(OC)c1OC | i | 0.96 | 1.0 | 41 | -23 | 99 | -7
COc1ccc(CNC(=O)C(c2ccncc2)N(C(=O)Cc2cccs2)c2cccc(C)c2)cc1 (stereo not given) | i | 0.89 | -0.8 | 71 | 10 | 113 | -1
Cc1ccccc1Sc1ncnc2onc(C)c12 | i | 1 | -0.5 | 100 | 64 | 87 | 0
CC(=O)NC1C(OCc2ccccc2)OC(COC(C)=O)C(OC(C)=O)C1OC(C)=O (stereo not given) | i | 1.1 | 0.0 | 112 | -9 | 140 | -7
Cc1ccc(C)c(-n2c(CNC(=O)c3ccco3)nnc2SCC(=O)Nc2nnc(C)s2)c1 | i | 0.8 | -4.5 | 103 | nt | nt | -19
CNC(=O)c1c(C)noc1C | nt | nt | nt | 101 | -23 | 98 | -6
CCN(CC)C(=O)CN1C(=O)c2cccc3cccc(c23)C1=O | i | 1.1 | nt | 100 | nt | nt | 1
CCC(C)NC(=O)Cn1c(-c2ccccc2)cc(C(C)=O)c1C (stereo not given) | i | 0.96 | nt | 95 | 0 | 90 | 1
C=CCn1c(C(CCC(C)C)CC(C)(C)O)n[nH]c1=S (stereo not given) | i | 1.4 | -2.9 | 94 | -7 | 112 | -11
Cc1ccc(NC(=O)C2CCCN(S(=O)(=O)c3cnc[nH]3)C2)c(Br)c1 (stereo not given) | i | 0.87 | -0.1 | 100 | nt | nt | -3
COC(=O)CSc1n[nH]c(=S)s1 | i | 0.9 | -1.5 | 101 | -22 | 98 | -3
CCOC(=O)C1CCCN(CCC(=O)Nc2ccccc2C)C1 (stereo not given) | i | 1 | nt | 98 | nt | nt | -2
CC(NCc1nc2ccccc2n1C)C12CC3CC(CC(C3)C1)C2 (stereo not given) | i | 1 | nt | 118 | nt | nt | 7
O=C(OCC(=O)c1c[nH]c2ccccc12)c1ccco1 | i | 0.95 | -1.3 | 105 | 36 | 116 | 11
Cc1cccc(Oc2coc3cc(OC(=O)c4cncc(Br)c4)ccc3c2=O)c1 | i | 0.89 | -1.1 | 109 | 14 | 122 | -11
CC(C)Oc1ccc(C(=O)O)c(C(=O)O)c1 | i | 1 | 0.3 | 95 | 5 | 125 | -2
COc1ccc(/C=c2\s/c(=C/C(=O)c3ccc(C)cc3)[nH]c2=O)cc1OC | ? | nt | 1.0 | 92 | -88 | 74 | -3
c1ccc(Cn2c(CNc3nc4ccccc4n3CCN3CCCCC3)nc3ccccc32)cc1 | i | 0.6 | -1.4 | 71 | nt | nt | -1
Cc1cccc(-c2c3c(=O)n(C)c(=O)n(C)c3cn2-c2ccc(O)cc2)c1 | i | 1 | -1.6 | nt | -29 | 108 | -4

Part of the list above, limited to INS promoter inh, INS promoter inh cell count and GALR2 ag.
structure | INS promoter inh | INS promoter inh cell count | GALR2 ag
Cc1cccc(Oc2coc3cc(OC(=O)c4cncc(Br)c4)ccc3c2=O)c1 | 14 | 122 | -1.1
CC(C)Oc1ccc(C(=O)O)c(C(=O)O)c1 | 5 | 125 | 0.3
COc1ccc(/C=c2\s/c(=C/C(=O)c3ccc(C)cc3)[nH]c2=O)cc1OC | -88 | 74 | 1.0
c1ccc(Cn2c(CNc3nc4ccccc4n3CCN3CCCCC3)nc3ccccc32)cc1 | nt | nt | -1.4

(more compounds)
mol | HSV replic up | HSV replic up primary fold | GALR2 ag | RGS16-Gao | INS promoter inh | INS promoter inh cell count | PKD1 inh
CNC(=O)NC(=O)C(C)N1CCN(C/C=C/c2ccccc2)CC1 (stereo not given) | i | 0.97 | nt | 100 | nt | nt | 0
O=C(COc1ncnc2ccc(Br)cc12)NCc1ccco1 | i | 0.86 | nt | 98 | nt | nt | nt
Cc1c(O)ccc(-c2[nH]ncc2-c2nc3ccccc3s2)c1O | i | 0.92 | -1.5 | 99 | -28 | 146 | -4
CC1CCCCC1NCC(=O)Nc1ccccc1-c1ccccc1 (stereo not given) | i | 0.95 | -0.7 | 106 | 8 | 18 | -4
COc1ccc2oc(=O)c(C(C)=O)cc2c1 | i | 0.81 | -2.0 | 102 | 60 | 127 | -1
NNC(=O)CCc1nc2ccc(O)cc2[nH]1 | i | 0.96 | nt | 100 | nt | nt | 0
Cc1cc(S(=O)(=O)N2CCN=C2c2ccccc2)c(C)cc1Cl | i | 0.95 | 0.4 | 105 | -47 | 98 | -9
C[C@H](NC(=O)c1nc[nH]c1C(=O)N[C@@H](Cc1ccccc1)C(=O)OCc1ccccc1)c1ccccc1 | i | 0.88 | nt | 102 | nt | nt | 5
O=C(N1CCN(c2cccc(Cl)c2)CC1)C1(c2cccs2)CCOCC1 | i | 1.1 | -1.6 | 109 | -19 | 69 | 0
O=C(NCc1ccccc1Cl)c1ccc2nnsc2c1 | i | 1.2 | nt | 99 | nt | nt | nt
CCc1nc2n(n1)C(O)c1cc([N+](=O)[O-])ccc1S2 (stereo not given) | i | 1.1 | nt | 96 | nt | nt | nt
COc1cccc(N2C(=O)CC(N3CCC(C(N)=O)(N4CCCCC4)CC3)C2=O)c1 (stereo not given) | i | 0.83 | -1.8 | 104 | 26 | 109 | -8
Cc1nc2ccc(NC(=O)c3ccc(Br)o3)cc2s1 | i | 1 | nt | 96 | -29 | 116 | 10
Cc1nn(C)c(C)c1/C=N/N=C1\CCC2C3CCc4cc(O)ccc4C3CCC12C (stereo not given) | nt | nt | -1.4 | 96 | -91 | 101 | 6
CCN(CC(=O)N1CCN(c2ccccc2)CC1)S(=O)(=O)c1ccc(C)cc1 | i | 0.99 | -0.3 | 108 | -3 | 97 | -9

Molecules shown so far with a thiophene ring, fused or not:
mol | HSV replic up | HSV replic up primary fold | GALR2 ag | RGS16-Gao | INS promoter inh | INS promoter inh cell count | PKD1 inh
Cc1cc(C)n(-c2ncnc3sc(C)c(C)c23)n1 | i | 0.92 | -1.2 | 114 | -300 | 85 | -2
CCN(CC)c1ncnc2scc(C3COc4ccccc4O3)c12 (stereo not given) | i | 0.79 | -1.6 | 98 | 8 | 175 | -4
COc1ccc(CNC(=O)C(c2ccncc2)N(C(=O)Cc2cccs2)c2cccc(C)c2)cc1 (stereo not given) | i | 0.89 | -0.8 | 71 | 10 | 113 | -1
O=C(N1CCN(c2cccc(Cl)c2)CC1)C1(c2cccs2)CCOCC1 | i | 1.1 | -1.6 | 109 | -19 | 69 | 0

Other compounds
mol | HSV replic up | HSV replic up primary fold | GALR2 ag | RGS16-Gao | INS promoter inh | INS promoter inh cell count | PKD1 inh
CC1(C)Cc2c(C#N)c(SCc3nc4ccccc4[nH]3)nc(N3CCOCC3)c2CO1 | i | 0.93 | 0.0 | 97 | -7 | 82 | 2
Cc1nnc2n(Cc3ccccc3)c(=O)c3c4c(sc3n12)COC(C(C)C)C4 (stereo not given) | i | 0.89 | -0.1 | 106 | nt | nt | -2
NC(=S)NNC(=O)c1ccccc1Cl | i | 0.95 | nt | 106 | nt | nt | nt
Cc1cccc(NC(=O)C23CCC(C)(/C(=N/O)C2)C3(C)C)c1 (stereo not given) | i | 0.7 | -3.6 | 102 | 6 | 78 | -4
O=C(NCC(=O)N(CC1CCCO1)C1(C(=O)NC2CCCCC2)CCCCC1)c1ccccc1 (stereo not given) | i | 1 | 0.3 | 103 | -37 | 87 | 0
CCOC(=O)C(NC(=O)NCc1cccc(C(F)(F)F)c1)(OCC)C(F)(F)F (stereo not given) | i | 1.1 | -0.4 | 31 | nt | nt | -8
COc1ccccc1C(N)=S | i | 0.99 | -0.4 | 101 | 40 | 152 | 0
O=S(=O)(c1ccc(Br)cc1)N1CCN=C1SCc1cccnc1 | i | 0.93 | nt | 101 | -31 | 59 | 2
Cc1cccc(C)c1N(CC(=O)NCc1ccc(F)cc1)C(=O)c1csnn1 | i | 0.91 | nt | 105 | nt | nt | 1
Cn1c(=O)oc2cc(S(=O)(=O)NC3CCCCCCC3)ccc21 | i | 0.8 | -1.7 | 112 | nt | nt | -1
Cc1c(C(=O)NCC2CCCO2)cccc1[N+](=O)[O-] (stereo not given) | i | 0.89 | -0.7 | 95 | nt | nt | -9
COC1CCCCC1NS(=O)(=O)c1ccccc1 (stereo not given) | i | 0.93 | -0.5 | 98 | 45 | 70 | 0
CCN1CCN(CCC2Oc3cc([N+](=O)[O-])ccc3NC2=O)CC1 (stereo not given) | i | 1.2 | nt | 105 | nt | nt | -4
c1ccc(Cc2nnc3sc(-c4ccc5c(c4)OCCO5)nn23)cc1 | i | 1.1 | -3.7 | 103 | nt | nt | -12
CCOC(=O)c1sc(=NC(=O)/C=C/c2ccccc2)n(C)c1C | i | 0.9 | nt | 106 | nt | nt | 2

(listing goes on)
Compound,HSV replic up,HSV replic up primary fold,GALR2 ag,RGS16-Gao,INS promoter inh,INS promoter inh cell count,PKD1 inh
CCOc1ccc(-n2c(N)c(C(=O)NCC3CCCO3)sc2=S)cc1 (stereo not given),i,0.91,-1.3,84,-44,94,-7
COC(=O)C1CN(S(=O)(=O)c2ccc(C)cc2)CCN1S(=O)(=O)c1ccc(C)cc1 (stereo not given),i,1,0.3,102,-136,156,2
O=C(c1cnn(C(=O)c2cccc(S(=O)(=O)N3CCOCC3)c2)c1)c1ccccc1O,i,0.99,nt,102,nt,nt,-6
CCCCn1c(CN2CCN(C(=O)OCC)CC2)nc2c1c(=O)[nH]c(=O)n2C,i,0.93,0.3,100,10,66,-13
CCCCCn1c(C(Cc2ccccc2)NC(C)=O)nc2ccccc21 (stereo not given),i,1.1,-2.2,104,nt,nt,-6
CC1(C)Cc2c(c(-c3ccccc3)nc3sc4c(=O)[nH]c(=S)[nH]c4c23)CO1,i,0.93,nt,98,nt,nt,nt
NC(=O)CSc1nnc(COc2ccccc2)n1C1CCCCC1,nt,nt,-1.5,nt,nt,nt,-2
COc1cc(C(CC(=O)N2CCN(c3ccccc3)CC2)c2c(OC)cc(OC)c3ccc(=O)oc23)cc(OC)c1OC (stereo not given),i,0.95,nt,96,nt,nt,nt
OCCCNc1cc(-c2ccnc(Nc3cccc(Cl)c3)n2)ccn1,i,0.48,nt,108,nt,nt,nt
O=C(CN(C(=O)Cn1nnc(-c2ccccc2F)n1)c1cccc2c1CCCC2)NCc1ccccc1,i,0.9,0.7,114,2,151,4
CC1CC(C)CN(CCCCOc2ccc([N+](=O)[O-])cc2)C1 (stereo not given),i,0.89,-1.9,106,11,100,-10
COCCCNC(=O)CN(c1cc([N+](=O)[O-])ccc1OC)S(C)(=O)=O,i,1.2,nt,91,nt,nt,-2
CC1(C)N([O-])C2=C(CCCC2)[N+]1=O,i,0.94,nt,99,nt,nt,0
Cc1cccc(NC(=O)c2cc3c(=O)n4ccccc4nc3n(CC(C)C)c2=N)c1,i,0.81,nt,104,0,123,-5
O=C(/C=C/c1ccco1)NC(=S)Nc1cc(C(F)(F)F)ccc1N1CCOCC1,i,0.98,-1.4,88,-211,125,1
O=C(NCc1cccnc1)C1CCCCN1S(=O)(=O)c1ccc(F)cc1 (stereo not given),i,1,-2.3,106,nt,nt,-19

Screening data deposited in PubChem by several laboratories.
